Screening results: PubChem BioAssay, National Center for Advancing Translational Sciences (NCATS)
VACV Venus inh: qHTS for Stage-Specific Inhibitors of Vaccinia Orthopoxvirus: Venus Reporter Primary qHTS; Vaccinia virus Venus reporter expression, fluorescence; Potency, µM (doses to about 36.5 µM), for the others: at the top dose activity change, negative = inhibition, usual class: inhibitors; actives 0.46% (n = 330,000); AID 720580, 2013; active means well fitted inhibition curve with a large enough effect; inconclusive means small, poorly fitted or top-dose-only effect; inactive means no such curve, though single readings can be large or run the other way; tested in A549 cells; note: nearly all actives have a fitted effect of over 30% in size; inactives centre near -10
VACV mCherry inh: qHTS for Stage-Specific Inhibitors of Vaccinia Orthopoxvirus: mCherry Reporter Primary qHTS; Vaccinia virus mCherry reporter infection, fluorescence; about a quarter of the inactives have no number; Potency, µM (series often up to 36.5 µM), without a hit: at the top dose activity change, negative = inhibition, most hits filed as inhibitors; actives 0.63% (n = 310,000); active = well fitted inhibition curve with a large enough effect; inconclusive = small, poorly fitted or top-dose-only effect; inactive = no such curve, though single readings can be large or run the other way; tested in A549 cells; note: nearly all actives have a fitted effect of over 35% in size; inactives centre near -10
* = called active by the depositor; i = inactive; ? = inconclusive; . = no result given; & = joins results of further samples. % is set by controls: 0 for no effect and ±100 for the full control effect; potency is the fitted concentration of half-maximal effect.

SMILES | VACV Venus inh | VACV mCherry inh
CC1(C)Cc2c(C#N)c(NCCc3ccccc3)nc(-c3ccco3)c2CO1 | -7% | .
COC(=O)c1cc(C(=O)c2cc(Cl)ccc2O)coc1=N | -11% | -21%
CCOC(=O)O[C@]1(C(=O)COC(=O)CC)CC[C@H]2[C@@H]3CCC4=CC(=O)C=C[C@]4(C)[C@H]3[C@@H](O)C[C@@]21C | -7% | -15%
O=c1cc(-c2ccncc2)oc2c1ccc1ccccc12 | 4% | -12%
NCCCC[C@H]1NC(=O)[C@H](CCC(=O)O)NC(=O)c2cc([N+](=O)[O-])cc(I)c2OCC[C@@H](C(N)=O)NC1=O | -2% | -17%
CC(C)c1ccc(NC(=O)C(c2ccc3c(c2)OCO3)N2CCN(C(=O)c3ccco3)CC2)cc1 (stereo unspecified) | -27% | ?
COc1ccc(C(=O)N(C)C2CCCN(Cc3ccccc3F)C2)cc1OC (stereo unspecified) | -4% | ?
O=C(CNC(=O)c1ccc(Cl)c([N+](=O)[O-])c1)OC1CCCCC1=O (stereo unspecified) | -8% | -14%
O=C(Nc1cc(Cl)ccc1Cl)C1(c2cccs2)CCOCC1 | -6% | -19%
CC(NC(=O)C1CCN(S(=O)(=O)c2ccccc2)CC1)c1ccccc1 (stereo unspecified) | -14% | 5%
COc1ccc(CCN2C(=O)c3ccncc3C2=O)cc1OC | -23% | .
O=C(O)CS(=O)(=O)c1ccc(C(F)(F)F)cn1 | -11% | i
CN1OC[C@@H]2CN(S(=O)(=O)c3ccccc3)[C@H](c3cccc(Br)c3)C[C@@H]21 | -4% | -13%
CC1CCc2onc(C(=O)N3CCN(c4cccc(C(F)(F)F)c4)CC3)c2C1 (stereo unspecified) | 2% | -11%
CCN(CC(=O)Nc1ccccc1C(F)(F)F)C(=O)/C=C/c1ccc(Cl)c([N+](=O)[O-])c1 | -5% | -14%
CC(C)NC(=O)Nc1ccc2c(c1)C(=O)N([C@H](C)CO)C[C@H](C)[C@@H](CN(C)Cc1ccc(C(F)(F)F)cc1)OCCCC[C@H](C)O2 | ? | -21%
COc1ccc(-c2cc(C(C)=O)c(C)n2CCC(=O)Nc2cc(Cl)ccc2C)cc1 | -6% | -11%
O=C(COCc1cc(-c2ccc3c(c2)OCO3)on1)Nc1cc(C(F)(F)F)ccc1Cl | 1% | -11%
CC(=O)Nc1sc(C)c(C)c1CN1CCN(Cc2ccccc2)CC1 | -12% | -7%
CC(C)c1ccc(NC(=O)Cn2nnc(C(=O)NCc3ccc(Cl)cc3)c2N)cc1 | -7% | i
CCCCOCCCNC(=O)C[C@@H]1C[C@@]2(C(=O)OC)CC(C)(C)CC=C2N(Cc2ccccc2)C1=O | -21% | -2%
COc1ccc(OC)c(CNC(=O)C2CCC(=O)N(CCCN3CCCC3=O)C2)c1 (stereo unspecified) | -7% | -9%
O=S(=O)(Nc1cccc(-c2ccc(N3CCCC3)nn2)c1)c1ccccc1C(F)(F)F | -9% | -13%
CCN1CCC(CNCc2cn(-c3ccc(OC)cc3)nc2-c2ccccc2Cl)C1 (stereo unspecified) | -20% | ?
COc1ccccc1N1CCN(S(=O)(=O)c2ccc3c4c(cccc24)C(=O)N3)CC1 | -13% | ?
(list continues)
SMILES | VACV Venus inh | VACV mCherry inh
O=C(Nc1ccc2c(c1)OCO2)c1ccc(Cl)cc1Cl | -19% | -14%
CC1CCCN(CCCN2C(=O)C3C(C(=O)Nc4ccc(Cl)cc4)C4C=CC3(O4)C2C(=O)NC2CCCCC2)C1 (stereo unspecified) | -2% | i
O=C(NC1CCCCC1)c1ccccc1NC(=S)NC(=O)C1CC1 | -5% | -10%
CN1CCC(OC(=O)c2ccco2)CC1 | 1% | i
CN(CC(=O)NCCN1CCOCC1)S(=O)(=O)c1ccc(F)cc1 | 5% | -1%
C[C@H](CO)N1C[C@H](C)[C@@H](CN(C)Cc2ccccc2)Oc2c(NS(=O)(=O)c3ccc(F)cc3)cccc2C1=O | -7% | -3%
N[C@@H](Cc1ccccc1)C(=O)N1CCOCC1 | 0% | i
O=C(Nc1ccc(-c2nc3ccccc3o2)cc1)c1ccc(N2CCOCC2)c([N+](=O)[O-])c1 | -7% | -3%
CCc1ccccc1NC(=O)c1oc(=O)c2ccccc2c1-c1ccccc1 | 5% | -9%
O=C(Nc1ccc(F)c(F)c1)c1ccc(=O)n(Cc2ccc(F)cc2)c1 | 2% | -6%
Cc1ccccc1N(C(=O)c1snc(C(N)=O)c1N)C(C(=O)NCc1ccccc1)c1ccc(O)cc1 (stereo unspecified) | -14% | i
CCO/N=C(/C)c1c(O)cc(-c2ccccc2)n(-c2ccccc2)c1=O | -1% | -12%
Cc1cc(/C=C2\SC(=S)N(C)C2=O)c(C)n1-c1ccc(O)cc1 | -18% | ?
Clc1ccc(-c2n[nH]c3c2CCC3)cc1Cl | -23% | -23%
CN(C)c1ccc(Nc2ncnc3c2c(-c2ccccc2)cn3-c2cccc(Cl)c2)cc1 | -7% | 1%
Cc1noc(Cn2c(=O)c3cc4c(cc3n(CC(=O)Nc3cccc(Cl)c3)c2=O)OCO4)n1 | -6% | -4%
CC(CNC(=O)c1ccc(CSc2nc3ccncc3n2Cc2ccccc2)cc1)c1ccccc1 (stereo unspecified) | ? | ?
CC[C@@]1(C(=O)OC)N[C@H](CN(C)C(=O)c2ccc(C(C)(C)C)cc2)[C@@H]2C(=O)N(Cc3ccccc3)C(=O)[C@@H]21 | -12% | 2%
COc1ccc(-c2cc3nc4n(c(=O)c3s2)CCCCC4)cc1 | -4% | -14%
C=CCN1C(c2ccc(OCC)cc2)=CS/C1=C(\C#N)c1nnc2n1CCCCC2 | -21% | -23%
O=c1oc2ccc3ccccc3c2cc1-c1nnc(Nc2cccc(C(F)(F)F)c2)s1 | -3% | -12%
COC(=O)c1sccc1NC(=O)/C=C/c1c(Cl)cccc1Cl | -11% | .
c1ccc(CSc2nnnn2-c2ccc3c(c2)OCCO3)nc1 | -11% | -24%
COc1ccc(CNC(=O)C(c2ccco2)N(C(=O)c2snc(C(N)=O)c2N)c2ccccc2OC)cc1 (stereo unspecified) | -6% | -19%
O=C(NCCc1nc2ccccc2[nH]1)c1ccc(Br)o1 | -5% | -13%
Remaining list, next part:
SMILES | VACV Venus inh | VACV mCherry inh
Cc1ccnc2nc(C(=O)Nc3nnc(-c4ccc(Cl)cc4)o3)nn12 | 4% | -15%
CC(O)c1cc2c(cc1NC(=O)c1cnn3c1NC(c1ccco1)CC3C(F)(F)F)OCO2 (stereo unspecified) | -25% | .
O=C(Cn1ccc2ccccc2c1=O)N1CCN(c2cccc(Cl)c2)CC1 | -14% | .
CCC(=O)N1CCc2cc(S(=O)(=O)NC(Cc3ccccc3)C(=O)O)ccc21 (stereo unspecified) | -17%&-5% | -21%&2%
COc1ccc(-c2cc3nc(-c4ccc(Br)cc4)cc(C(F)(F)F)n3n2)cc1 | -1% | -4%
CCCN(C)C1CN(Cc2cn(Cc3ccccc3)nn2)S(=O)(=O)C1 (stereo unspecified) | 9% | 1%
CCOC(=O)CN1C(=O)N[C@@H](c2ccccc2)[C@H](C(C)=O)[C@H]1C | -5% | -1%
Nc1nnn(-c2ccccc2)c1-c1ccccc1 | -11% | -9%
COc1ccc(CC(=O)NCc2n[nH]c(=S)n2-c2ccccc2)cc1 | 7% | -17%
CCOC(=O)CNC(=O)CSc1nnc(-c2cccc(OC)c2)n1CC | -9% | .
CC(C)OC(=O)/C(C#N)=C/c1cn(C)c2ccccc12 | 7% | -13%
Cc1nn(-c2ccc(N3CCCCC3)nn2)c(C)c1CCC(=O)Nc1cccc(F)c1 | -11% | -9%
O=C(O)CCC(=O)N1CCCC1 | -14% | 0%
Cc1ccc(NC(=O)CN2C(=O)CCn3nc(-c4cccn4C)cc32)c(Cl)c1 | -8% | -8%
CN(C)C(=O)/C(=C\c1ccc(-c2cccc([N+](=O)[O-])c2)o1)NC(=O)c1ccccc1 | ? | -28%
COC(=O)c1cc2oc3ccccc3c2n1CC(=O)Nc1ccc(C)cc1Cl | -14% | -22%
COc1ccc(-c2onc(C)c2C)cc1S(=O)(=O)Nc1ccc(OC(F)(F)F)cc1 | -12% | 2%
O=C(O)c1ccc2c(c1)C(=O)N(NC(=O)c1ccc(O)cc1)C2=O | -10% | -6%
CCCOC(=O)c1ccc(NC(=O)C(=O)NCCN(CC)CC)cc1 | -15% | -2%
Cc1ccc(-c2nnc(/C=C/c3ccccc3)o2)cc1 | -1% | -10%
CC(C)C1C(=O)N(Cc2cn(CCC3OCCO3)nn2)CCS(=O)(=O)N1Cc1ccc(-c2ccccc2C(F)(F)F)cc1 (stereo unspecified) | -12% | i
O=C(Nc1ccc(Cl)c(C(F)(F)F)c1)c1cc2nc(-c3ccc4c(c3)OCO4)cc(C(F)(F)F)n2n1 | -5% | -5%
CSc1ccccc1NC(=O)CCS(=O)(=O)c1nc(-c2ccc3c(c2)OCO3)cc(C(F)(F)F)n1 | -23% | -30%
Cc1ccc(CNS(=O)(=O)CCNC(=O)c2ccccc2)cc1 | -8% | -15%
Cc1ccc(S(=O)(=O)N(C)C)cc1NC(=O)COC(=O)Cc1n[nH]c(=O)c2ccccc12 | -1% | -10%

An excerpt from above in order of formula weight, descending.
SMILES | VACV Venus inh | VACV mCherry inh
CC(C)C1C(=O)N(Cc2cn(CCC3OCCO3)nn2)CCS(=O)(=O)N1Cc1ccc(-c2ccccc2C(F)(F)F)cc1 (stereo unspecified) | -12% | i
CC(O)c1cc2c(cc1NC(=O)c1cnn3c1NC(c1ccco1)CC3C(F)(F)F)OCO2 (stereo unspecified) | -25% | .
Cc1ccc(S(=O)(=O)N(C)C)cc1NC(=O)COC(=O)Cc1n[nH]c(=O)c2ccccc12 | -1% | -10%
COc1ccc(-c2cc3nc(-c4ccc(Br)cc4)cc(C(F)(F)F)n3n2)cc1 | -1% | -4%
COc1ccc(-c2onc(C)c2C)cc1S(=O)(=O)Nc1ccc(OC(F)(F)F)cc1 | -12% | 2%
CN(C)C(=O)/C(=C\c1ccc(-c2cccc([N+](=O)[O-])c2)o1)NC(=O)c1ccccc1 | ? | -28%
Cc1ccc(NC(=O)CN2C(=O)CCn3nc(-c4cccn4C)cc32)c(Cl)c1 | -8% | -8%
COC(=O)c1cc2oc3ccccc3c2n1CC(=O)Nc1ccc(C)cc1Cl | -14% | -22%
O=C(Cn1ccc2ccccc2c1=O)N1CCN(c2cccc(Cl)c2)CC1 | -14% | .
Cc1ccnc2nc(C(=O)Nc3nnc(-c4ccc(Cl)cc4)o3)nn12 | 4% | -15%
COc1ccc(CC(=O)NCc2n[nH]c(=S)n2-c2ccccc2)cc1 | 7% | -17%
Cc1ccc(CNS(=O)(=O)CCNC(=O)c2ccccc2)cc1 | -8% | -15%
CCOC(=O)CN1C(=O)N[C@@H](c2ccccc2)[C@H](C(C)=O)[C@H]1C | -5% | -1%
Cc1ccc(-c2nnc(/C=C/c3ccccc3)o2)cc1 | -1% | -10%
O=C(O)CCC(=O)N1CCCC1 | -14% | 0%

(cont.)
SMILES | VACV Venus inh | VACV mCherry inh
COc1ccccc1NS(=O)(=O)c1cccc(C(=O)NN=C2CCCC2)c1 | -18% | -23%
COc1ccc(/C=C/C(=O)c2cc(F)ccc2OC(=O)c2ccccc2C)cc1OC | ? | ?
COc1ccc(S(=O)(=O)Nc2ccccn2)cc1OC | -7% | i
O=C(N/N=C/c1ccc(OC(=O)c2ccccc2Cl)cc1)c1cc(O)cc(O)c1 | -15% | -11%
O=C(CNS(=O)(=O)c1cccs1)N1CCC2(CC1)OCCO2 | -12% | .
COc1cccc(N2[C@@H](CC(C)=O)c3cc(C(F)(F)F)ccc3S2(=O)=O)c1 | -19%&-21% | -21%
Cc1ccc(CN2CCN(/N=C/C(Br)=C\c3ccccc3)CC2)cc1 | -11% | i
C#CCNC(=O)C[C@@H]1C[C@@]2(C(=O)OC)CCCCC=C2N(Cc2ccccc2)C1=O | -5% | -13%
COc1ccc(Cn2c(=S)[nH]c3ccccc32)cc1 | -6% | -11%
N/C(=N\c1nc(CSc2ccc(Cl)cc2)cc(=O)[nH]1)Nc1cccc2ccccc12 | -6% | -11%
COc1cc(C(=O)OCc2cc(=O)n3ccsc3n2)ccc1OC(C)C | -9% | -9%
CCNC(=O)c1cc2c(c(-c3cccc(-c4cccnc4)c3)n1)[C@H](CCO)N(S(C)(=O)=O)C2 | -12% | i
Cc1ccc2oc(C(=O)Nc3ccc(S(=O)(=O)Nc4ncccn4)cc3)cc(=O)c2c1 | -2% | -15%
COc1ccc(Cl)cc1C(=O)Nc1ccc2nc3n(c(=O)c2c1)CCCC3 | -18% | -22%
O=C(Nc1cccnc1)c1cccc(-c2cc3ccccc3oc2=O)c1 | -10% | i
Cc1ccc(C(=O)NC(NC(=S)Nc2ccc(S(N)(=O)=O)cc2)C(Cl)(Cl)Cl)cc1 (stereo unspecified) | -22% | -29%
Cc1ccc(-c2nc3c(c(=O)[nH]c(=O)n3Cc3ccccc3)n2C)o1 | -3% | -1%
CC(=O)c1cccc(NC(=O)c2cccc3c(-c4cccc(C(N)=O)c4)coc23)c1 | ? | ?
Cc1cccc(C(=O)NCCCn2ccnc2)c1C | -3% | -4%
CCC(CC)C(C(=O)NC1CCCC1)N1CCN(c2cc(C)nc3ccccc23)CC1 (stereo unspecified) | -9% | 20%
COC(=O)Cn1c(CN2CCc3ccccc3C2)nc2c1c(=O)n(C)c(=O)n2C | -5% | i
COC(=O)c1nnn(-c2cccc(Cl)c2)c1C(=O)OC | -12% | -2%
CCC1(C(=O)O)NC(c2cccc(OC)c2O)C2C(=O)N(c3ccccc3)C(=O)C21 (stereo unspecified) | -15% | 16%
